High-throughput results: PubChem, several laboratories
Beta2AR agonist = activates human beta-2 adrenergic receptor causing internalization; AID 504454; 340,000 compounds, 0.43% hits; Am2.2-beta2AR cells, FAP receptor internalization, flow cytometry; reference of the scale not given here; response, % (no concentration beside the values); P07550;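 active = response above a set limit, near 3 SD of response in nonfluorescent compounds, cut at about 42% in these data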;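 also: stock transfer was 100 nL into about 11 µL; a reference agonist was the positive control; negative values mostly stem from fluorescent compounds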
E coli growth = blocks Escherichia coli growth; OD600, 23 h; active compounds read low; OD600 absorbance (test concentration not listed); 330,000 compounds, 0.21% hits;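 active = OD600 absorbance below the run mean of sample wells minus 3.6 SD, in any replicate, cut at about 0.56 in these data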;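 also: stock transfer was 300 nL into about 60 µL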
UCH37 DUB inh = blocks the human deubiquitinase UCH37. inhibition, % (no concentration beside the values). 330,000 compounds, 0.33% hits. purified proteasome/UCH37, Ub-AMC cleavage fluorescence;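 active = mean of two replicates above 20%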;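 also: 0% = compound-free wells with enzyme and 100% = wells lacking proteasome; stock transfer was 100 nL into about 20 µL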
Target sequence (Q9Y5K5 whole entry, looked up): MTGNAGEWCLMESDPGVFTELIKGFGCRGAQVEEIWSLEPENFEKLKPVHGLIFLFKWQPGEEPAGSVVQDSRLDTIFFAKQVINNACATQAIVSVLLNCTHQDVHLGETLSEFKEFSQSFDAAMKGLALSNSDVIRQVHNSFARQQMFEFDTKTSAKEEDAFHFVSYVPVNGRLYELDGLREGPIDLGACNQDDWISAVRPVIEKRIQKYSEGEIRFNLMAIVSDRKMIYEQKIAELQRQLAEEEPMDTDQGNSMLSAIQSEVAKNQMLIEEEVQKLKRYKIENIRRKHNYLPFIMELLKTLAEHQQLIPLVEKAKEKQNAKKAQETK
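Signal – fluorescence, ex 355 nm, em 460 nm · System – Proteasome-bound UCH37 · Input – 0.15 nM proteasome as dispensed · Timing – 30 min preincubation with enzyme, 25 min cleavage at room temperature · Read-out basis – percent inhibition of cleavage signal versus uninhibited and no-proteasome wells · Medium – Tris-HCl pH 7.4 with ATP-MgCl2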
FGF22 binding = FGF22 (human) thermal shift binding; recombinant FGF22 thermal shift, SYPRO orange fluorescence; percent of sucrose octasulfate shift, DMSO zero; calls only at 9.99 µM; Q9HCT0; 340,000 compounds, 1.5% hits; AID 651658;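 active = melting point raised past a set limit in the mean and every replicate; inconclusive = no clear call; three in four hits are not shown here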
ALR H2O2 inh = inhibitors of human sulfhydryl oxidase ALR | purified ALR, DTT oxidation, H2O2 HRP-luminol luminescence | P55789 | 290,000 compounds, 3.8% hits | inhibition, % (concentration not given with the values);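 active = mean and each replicate at 75% or more; inconclusive = only one of the two met; inactive = neither met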;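 also: stock transfer was 7.5 nL into about 7.5 µL; 0% = neutral wells and 100% = wells with inactivated enzyme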
Target sequence (P55789 whole entry, looked up): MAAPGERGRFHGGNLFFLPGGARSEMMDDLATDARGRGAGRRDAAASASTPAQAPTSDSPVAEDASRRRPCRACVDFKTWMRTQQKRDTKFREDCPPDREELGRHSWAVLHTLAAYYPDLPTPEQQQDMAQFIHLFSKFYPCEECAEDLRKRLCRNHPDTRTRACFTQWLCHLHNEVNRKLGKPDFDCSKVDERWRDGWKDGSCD
HNF4A DNA FP = change in binding of human HNF4 alpha to DNA | HNF4a-FITC DNA binding, fluorescence polarization, 1 h | 360,000 compounds, 0.3% hits | AID 1224865 | P41235 | activity change, % at 10 µM; in the data active = activity change above about 30%, passing the limit was not always enough;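 also: controls were the assay level and a saturating level of protein; the project sought stronger binding though the title names inhibitors; some compounds called inactive have numbers as strong as hits; positive values seem to mean higher polarization but the record does not say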
Target sequence (P41235 whole entry, looked up): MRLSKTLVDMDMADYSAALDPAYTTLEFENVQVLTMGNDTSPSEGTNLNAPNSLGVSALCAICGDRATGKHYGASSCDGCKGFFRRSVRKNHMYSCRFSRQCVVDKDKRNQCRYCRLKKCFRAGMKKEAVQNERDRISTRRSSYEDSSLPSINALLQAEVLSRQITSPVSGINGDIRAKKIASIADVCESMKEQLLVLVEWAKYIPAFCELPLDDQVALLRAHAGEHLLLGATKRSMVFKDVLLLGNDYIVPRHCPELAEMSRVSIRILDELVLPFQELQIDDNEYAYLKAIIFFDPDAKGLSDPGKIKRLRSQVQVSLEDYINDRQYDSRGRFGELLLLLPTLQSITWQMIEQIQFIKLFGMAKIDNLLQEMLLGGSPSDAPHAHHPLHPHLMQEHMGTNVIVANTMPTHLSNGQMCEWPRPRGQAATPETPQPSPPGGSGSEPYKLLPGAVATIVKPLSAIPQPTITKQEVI
LANA-H2B inh = blocks KSHV LANA binding to histone H2A/H2B; Q9QR71; cell-free LANA-H2A/H2B peptide, fluorescence polarization; inhibition, % (no concentration beside the values); 320,000 compounds, 0.6% hits; AID 2629; in the data active = inhibition mostly above about 10%, no sharp cut-off; inactive = mostly below about 6.7%;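 also: stock transfer was 7.5 nL into about 10 µL; 0% = median of vehicle wells and 100% = median of positive control wells; one replicate is shown; the record names a cut of 25% in any replicate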
* hit, by the source's call; i = inactive; ? = inconclusive; nt = no result given; + = active, no number. The list is partial, so the mix of outcomes need not match the whole.

SMILES	Beta2AR agonist	E coli growth	UCH37 DUB inh	FGF22 binding	ALR H2O2 inh	HNF4A DNA FP	LANA-H2B inh
O=C(COc1ccc2ccccc2c1)NNC(=O)c1cccs1	-2	nt	nt	i	nt	-2.4	1.5
CCOC(=O)C1=C(C)NC(C)=C(C(=O)OCC)C1c1cc2ccc(C)cc2[nH]c1=O	-5	0.72	-29	nt	8	-0.2	-0.4
Cc1cc(C)cc(C(=O)NCC(=O)OCc2cc([N+](=O)[O-])cc3c2OCOC3)c1	0	0.66	18	i	-22	3.1	4.1
CCC(=O)c1ccc(OCC(=O)OCC(=O)NCCCc2ccccc2)cc1	-8	0.7	-0.1	i	-7	1.9	5.5
COc1cccc(C(=O)N2CCC(O)(c3cccnc3)CC2)c1	7	0.7	3.7	i	-16	-1.3	2.5
Cc1ccc(NC(=O)CCc2nc3sc4c(c3c(=O)[nH]2)CCCC4)nc1	-9	0.73	-4.6	nt	34	18	-0.9
Cc1cc(C(F)(F)F)n(-c2nc(C(=O)O)cs2)n1	-3	0.66	0.8	i	-5	1.6	1.4
O=C1CN(C(=O)COc2ccc(Br)cc2F)c2ccccc2N1	3	0.67	-0.9	nt	nt	0.2	-5.1
CCCOc1ccc(C(CC(=O)O)NC(=O)Cc2ccccc2)cc1 (stereo unspecified)	5	0.67	1.8	i	-3	2.4	-1.5
COc1ccc(-n2c(CNC(=O)c3cc(OC)c(OC)c(OC)c3)n[nH]c2=S)cc1	-6	0.73	3.2	nt	93*	3.9	0.8

Overlap with the part before: 4 entries; new compounds follow.
SMILES	Beta2AR agonist	E coli growth	UCH37 DUB inh	FGF22 binding	ALR H2O2 inh	HNF4A DNA FP	LANA-H2B inh
Cc1cc(C(F)(F)F)n(-c2nc(C(=O)O)cs2)n1	-3	0.66	0.8	i	-5	1.6	1.4
O=C1CN(C(=O)COc2ccc(Br)cc2F)c2ccccc2N1	3	0.67	-0.9	nt	nt	0.2	-5.1
CCCOc1ccc(C(CC(=O)O)NC(=O)Cc2ccccc2)cc1 (stereo unspecified)	5	0.67	1.8	i	-3	2.4	-1.5
COc1ccc(-n2c(CNC(=O)c3cc(OC)c(OC)c(OC)c3)n[nH]c2=S)cc1	-6	0.73	3.2	nt	93*	3.9	0.8
COC(=O)/C(=N/Nc1ccccc1C)Sc1nnc(C(O)c2ccccc2)n1-c1ccccc1 (stereo unspecified)	-12	nt	nt	i	-8	-3.1	-0.7
Cc1c(NC(=O)Nc2ccccc2Cl)c(=O)n(-c2ccccc2)n1C	-3	0.7	1.6	i	nt	-5.2	-1.5
CC(Sc1ccc(Cl)cc1)C(=O)NCc1cccnc1 (stereo unspecified)	1	0.79	4.6	nt	-29	-0.4	0.8
CN(C)CCCN1C(=O)C(O)=C(C(=O)c2cc3ccccc3o2)C1c1ccccc1 (stereo unspecified)	-3	0.79	6.7	nt	-2	0.8	3.6
COc1ccc(OC)c(CNC(=O)CCn2nc(C)c3c(C)n(-c4ccccc4)nc3c2=O)c1	-4	0.65	0.8	i	4	3.9	0.6
CNC(=S)N/N=C1\C(=O)c2cccc3cccc1c23	0	0.69	2.9	nt	7	1.6	2.2
CC(C)OC(=O)c1cc(NC(=O)C2C3C=CC(O3)C2C(=O)O)cc(C(=O)OC(C)C)c1 (stereo unspecified)	-1	0.68	3.8	i	-2	1.2	0.3
O=S(=O)(NCCSc1ccccn1)c1ccc(Br)cc1	3	0.68	1.8	i	-26	3.3	-0.6
CCOc1ccc(NS(=O)(=O)c2cnc(Cl)c(Cl)c2)cc1	0	0.66	0.7	nt	4	-0.6	0.0
CC1(C)CCCC2=C1CC1C(=O)N(O)C(=O)C1C2 (stereo unspecified)	11	0.69	0.9	nt	-8	1.2	1.6
O=C(NCc1ccccn1)c1cccc(S(=O)(=O)N2CCCCC2)c1	4	0.63	-1.4	i	nt	1.2	-0.6
CNC(=O)c1c(NC(=O)c2ccc(S(=O)(=O)N3CCCC3)cc2)sc2c1CCN(C(C)C)C2	nt	nt	nt	i	0	nt	-6.6
NC(=O)Nc1ccc(C(=O)OCC(=O)Nc2ccc(Cl)cn2)cc1	2	0.72	3.8	i	-18	-0.6	-1.5
CC(CC(=O)Nc1ccncc1)c1ccccc1 (stereo unspecified)	0	0.7	5.4	nt	-4	-3.0	-3.9
CC(Sc1nnc(-c2cccs2)n1-c1ccccc1)C(=O)NCc1ccco1 (stereo unspecified)	15	0.71	2.9	nt	4	1.1	-8.0
Cc1nc2oc3ccc(F)cc3c(=O)c2cc1C(=O)O	3	0.68	-8.5	i	-1	-4.1	-1.9
CCOc1ccc(C(=O)NCC(=O)NCC(c2ccco2)N2CCCCC2)cc1 (stereo unspecified)	-1	0.66	-1.3	i	-2	-3.2	0.5
Cc1cccc(NC(=O)C2NC(=O)CC2c2ccccc2)c1C (stereo unspecified)	5	0.71	4.2	i	-14	1.4	-1.7
COc1ccc(Cl)cc1NC(=O)CN(C)C(=O)C1CC(=O)N(Cc2ccc(C)cc2)C1 (stereo unspecified)	5	0.7	2.7	i	2	3.8	5.7
O=C(C1CCN(S(=O)(=O)N2CCCCC2)CC1)N1CCCCC1	9	0.67	1.6	nt	-2	-1.2	14
CCN(CC)S(=O)(=O)c1ccc(C(=O)NC2=NCCS2)cc1	-2	0.7	5.4	i	-5	2.3	0.0
COc1cc(NC(=O)CSc2nnnn2Cc2ccc3c(c2)OCO3)cc(OC)c1	7	0.73	-0.6	nt	-8	0.7	3.0
Oc1ccc(NC(=S)Nc2ccc(O)cc2)cc1	3	0.7	5.6	i	99*	-3.8	0.1
O=C(COC(=O)c1ccc(Sc2ccccc2)c([N+](=O)[O-])c1)NC1CCS(=O)(=O)C1 (stereo unspecified)	0	0.64	3.9	nt	-12	-2.6	0.6
CCOc1cc(-c2noc(CCC(=O)N3CCOCC3)n2)ccc1OC	1	0.71	1.6	nt	-9	3.4	1.1
COc1ccc(CCN2CC(C(=O)NCCc3ccccc3)CC2=O)cc1OC (stereo unspecified)	-4	0.71	1.5	i	-1	-0.8	0.0
CCn1c(SCC(=O)Nc2ccc(NC(C)=O)cc2)nnc1C1CC1	6	0.73	5.5	nt	-10	-3.5	2.4
CCc1cc2c3c(c(=O)oc2cc1OC(C)C(=O)O)CCCC3 (stereo unspecified)	-385	0.6	-319	i	nt	-3.1	3.3
COc1ccc(NC2CCCN(C(=O)CCC3=NNC(=O)CC3)C2)cc1 (stereo unspecified)	2	0.71	1.5	i	87*	0.2	-0.7
O=Cc1ccc(Sc2nnc(-c3ccccc3)o2)c([N+](=O)[O-])c1	2	0.7	8.2	nt	?	2.8	4.2
COc1ccc(CNC(=O)CCCNS(=O)(=O)c2cccc3nonc23)cc1	-3	0.71	3.2	nt	-20	1.1	2.3
Cc1ccc2nc(C(Cl)(Cl)Cl)nc(N/N=C/c3ccc([N+](=O)[O-])cc3)c2c1	-4	nt	nt	i	nt	4.6	nt
COc1ccc(N2CCN(S(=O)(=O)CCNC(=O)c3cc(=O)c4ccccc4o3)CC2)cc1	1	0.68	3.1	i	3	-2.6	-3.4
CNC(=O)c1ccccc1NC(=O)c1c(O)c2c([nH]c1=O)CCCC2	-19	0.7	-3.3	nt	1	0.1	0.4
O=C(CCNC(=O)Cn1ccc2ccccc2c1=O)NCCCN1CCN(c2ccc(F)cc2)CC1	29	0.69	1.2	nt	29	-2.1	-3.3
CCOC(=O)c1nn(-c2ccc(C)cc2)c2nc(Nc3ccccc3)cc(=O)n12	-8	0.7	-1.8	nt	-4	-0.3	-1.1
Cc1c[nH]c(=O)c([N+](=O)[O-])c1	8	0.7	3.4	i	-5	-1.8	-1.1
Cc1cc(NC(=O)COC(=O)COc2ccc(C(=O)c3ccccc3)cc2)no1	-7	0.76	4.2	nt	-3	-2.0	6.1
Cn1c(-c2cc3c(C(F)(F)F)nn(C)c3s2)n[nH]c1=S	4	0.66	-7.1	nt	13	0.3	2.5
CC1(C)CC(=O)c2sc(NC(=O)c3ccc4ncsc4c3)nc2C1	-9	0.77	5.3	i	nt	1.9	2.6
C/C(N)=C(/C#N)C(=O)CN1C(=O)NC(Cc2c[nH]c3ccccc23)C1=O (stereo unspecified)	-7	0.67	2.0	i	nt	-2.5	4.8
COc1ccc(-c2sc3cc4c(cc3c2-c2ccc(OCCN3CCCCC3)cc2)OCO4)cc1	17	0.64	-13	nt	nt	2.8	nt
O=C(CCc1ccccc1)Nc1ccccc1	-1	0.69	1.0	nt	-16	-2.3	4.7
COc1ccccc1NC(=O)C1CCN(C(=O)NCc2ccccc2)CC1	-3	nt	nt	i	3	1.4	-1.4
CC1(CCc2ccccc2)NC(=O)N(CC(=O)Nc2c(F)cccc2F)C1=O (stereo unspecified)	0	0.67	1.3	i	-2	-0.1	0.1
COC(=O)c1cccc(NC(=O)NC23CC4CC(CC(C4)C2)C3)c1	0	0.69	0.1	nt	-5	1.9	-0.4
O=C(Nc1c(C(=O)N2CCCCC2)cnn1-c1ccccc1)c1ccccc1	4	0.73	-0.1	i	12	-3.0	1.5
O=C(CSc1nccc(=O)[nH]1)Nc1ccccc1Sc1ccccc1	0	0.68	5.6	i	19	-0.6	3.5
COc1ccc(CCNC(=O)COC(=O)c2cnccn2)cc1	7	0.68	1.5	nt	1	3.9	1.1
O=[N+]([O-])c1csc2ccccc12	-7	0.66	4.4	i	nt	-1.3	nt
Next part
SMILES	Beta2AR agonist	E coli growth	UCH37 DUB inh	FGF22 binding	ALR H2O2 inh	HNF4A DNA FP	LANA-H2B inh
Cc1[nH]c2ccccc2c1C(=O)CN1CCCC1	-2	0.69	4.1	i	-15	2.4	1.8
CC(C)COc1ccc(C(=O)N/C(=C/c2cccc([N+](=O)[O-])c2)C(=O)O)cc1	-3	0.69	-0.2	i	2	0.0	2.8
Cc1ccccc1-n1nc2c(c1NC(=O)c1ccc(S(=O)(=O)N(C)C)cc1)CSC2	12	0.7	-1.3	i	-4	0.0	3.6
CN(C)S(=O)(=O)c1ccc(Cl)c(NC(=O)CSc2nnnn2-c2ccc(O)cc2)c1	-5	0.65	5.3	i	nt	-2.3	nt
Cc1ccc(NC(=O)CCC(=O)NNC(=O)NC23CC4CC(CC(C4)C2)C3)cc1C	-4	0.71	4.2	i	nt	-0.3	0.0
O=C(/C=C\c1ccccc1)Nc1ccc(NC(=O)c2ccco2)cc1	-19	nt	-1.7	+	-2	-0.8	1.7
CCC(=O)NC(Nc1cc(C)cc(C)n1)(C(F)(F)F)C(F)(F)F	6	0.68	0.3	nt	-16	0.6	-3.1
COc1cc(C(=O)COC(=O)C2CCN(c3ccc(C(F)(F)F)cn3)CC2)ccc1OC(F)F	4	0.66	-1.3	i	-6	-1.1	4.9
CN(C)S(=O)(=O)c1ccc2nnn(OCC(=O)NC34CC5CC(CC(C5)C3)C4)c2c1	-12	0.67	2.6	nt	nt	-2.3	nt
COc1ccc(-c2cc(=O)[nH]c(NCc3ccccc3)n2)cc1	-6	0.68	-16	nt	-2	0.0	-2.0
Cc1cc(=O)n2nc(N3CCCC(C(=O)N4CCOCC4)C3)sc2n1 (stereo unspecified)	0	0.68	8.3	nt	-3	-2.5	1.2
COc1cccc(NC(=O)COC(=O)c2ccco2)c1	-1	0.72	2.2	nt	-1	0.7	-1.4
CCO[C@@H]1OC(C(=O)N2CCN(Cc3ccc4c(c3)OCO4)CC2)=C[C@H](C)[C@H]1CCCO	-1	nt	3.1	i	-2	-4.3	1.0
O=C1CC2CS(=O)(=O)CC2N1c1ccc(Cl)cc1Cl (stereo unspecified)	11	0.73	-0.7	nt	2	-1.7	7.2
CCN(C[C@H]1N[C@@](Cc2ccccc2)(C(=O)OC)[C@H]2C(=O)N(C)C(=O)[C@@H]12)C(=O)Nc1ccc(C)cc1	2	0.67	0.0	i	nt	1.1	nt
CCC(C)(C)n1nnnc1CN1CCN(C(c2ccccc2)c2ccccc2)CC1	1	0.73	1.7	nt	-4	-0.3	0.2
O=C(NC1CCCCNC1=O)c1ccco1 (stereo unspecified)	-13	0.64	-0.1	i	nt	-4.9	2.3
